Screening results deposited in PubChem BioAssay by National Center for Advancing Translational Sciences (NCATS).
VDR inh: Inhibitors of the vitamin D receptor (VDR): qHTS | VDR-SRC2-3 peptide fluorescence polarization, 2 h | hit rate 0.93% among 400,000 | Potency, µM, without a hit: max response, negative = inhibition, most hits filed as inhibitors | AID 504847, 2011 | Vitamin D3 receptor (Homo sapiens), P11473; active = well fitted inhibition curve with a large enough effect; inconclusive = small, poorly fitted or top-dose-only effect, or another doubt; inactive = no such curve, though single readings can be large or run the other way; also: series mostly up to about 120 µM
Target sequence (P11473 whole entry, looked up): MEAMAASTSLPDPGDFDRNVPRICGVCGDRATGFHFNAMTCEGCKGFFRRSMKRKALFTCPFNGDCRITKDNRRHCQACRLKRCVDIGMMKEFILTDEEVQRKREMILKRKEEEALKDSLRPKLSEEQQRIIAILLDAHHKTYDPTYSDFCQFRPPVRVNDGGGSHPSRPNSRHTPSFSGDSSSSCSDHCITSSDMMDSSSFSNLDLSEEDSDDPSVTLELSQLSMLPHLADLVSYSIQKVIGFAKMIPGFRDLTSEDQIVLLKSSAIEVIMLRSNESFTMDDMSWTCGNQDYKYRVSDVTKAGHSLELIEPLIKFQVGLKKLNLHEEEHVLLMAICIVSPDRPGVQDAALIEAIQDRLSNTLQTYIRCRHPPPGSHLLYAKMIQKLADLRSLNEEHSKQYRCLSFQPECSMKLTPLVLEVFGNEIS
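VDR–SRC2-3 interaction, FP format. Cmpds 23 nl via pintool, brief spin, 2 h ambient incubation.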
The depositor's hits bear a star; & = joins results of further samples; [ ] = another dose, or the depositor's remark. % is scaled to controls: 0 for no effect and ±100 for the full control effect; potency is read from the fitted curve at half-maximal effect.

How did O=C(NC1CCCc2c1cnn2-c1ccc(F)cc1F)c1cnccn1 (configuration not stated) do in these assays?
VDR inh: 6.5%

How did N#Cc1c2c(nc(N)c1-c1ccccc1)CCCCC2 do in these assays?
VDR inh: -10.3%

How did Cc1nn(-c2ccccc2)c(Cl)c1C(=O)NNC(=O)c1ccncc1 do in these assays?
VDR inh: -1.1%

What do the screens show for `Cc1ccc(-c2nnc(SCC(=O)Nc3nc4c(s3)CCCC4)n2C)cc1`?
VDR inh: -14.4%

Results for Cc1cccc(C)c1NC(=O)CNc1ncnc2sc(C)c(C)c12 ?
VDR inh: -26.2%

What do the screens show for `CN(c1ccc(F)cc1)S(=O)(=O)N1CCCC(C(=O)NCc2ccccc2Cl)C1` (configuration not stated)?
VDR inh: 15.4%

Results for O=C(Nc1cccc(Cl)c1)c1ccc2c(c1)CCN2S(=O)(=O)c1ccccc1 ?
VDR inh: 14.2%

Results for CN(CCC#N)CC(=O)Nc1ccc(NC(=O)CN(C)CCC#N)cc1 ?
VDR inh: 0.2%

Results for COC(=O)C1=CNC=C(C(=O)OC)C1c1ccccc1Cl ?
VDR inh: -9.9%

Results for Cc1ccc(C)c(C(=O)CN2Cc3ccccc3C2=O)c1 ?
VDR inh: -3.0%

How did CCCCn1c(N)c(N(CCC(C)C)C(=O)c2ccccc2-n2cnnn2)c(=O)[nH]c1=O do in these assays?
VDR inh: -13.9%

Results for CC(=O)NC(Cc1c[nH]c2ccccc12)C(=O)OCC(=O)N1CCN(S(=O)(=O)c2ccc(Cl)cc2)CC1 (configuration not stated) ?
VDR inh: -1.7%

What do the screens show for `O=C(CSc1nnc(Cc2ccccc2)c(=O)[nH]1)Nc1ccccc1`?
VDR inh: -19.7%

How did O=C(NCCc1csc2nc(-c3ccc(F)cc3)nn12)c1ccco1 do in these assays?
VDR inh: 7.6%

How did COc1ccccc1CNC(=O)c1cn(C)c2ccc(S(=O)(=O)N(C)C3CCCCC3)cc2c1=O do in these assays?
VDR inh: -8.4%

How did NC(=O)c1cccnc1Oc1ccc(Cl)cc1 do in these assays?
VDR inh: 0.7%

Results for CCOC(=O)C(=O)Nc1ccc([N+](=O)[O-])cc1OC ?
VDR inh: 4.5%

How did CCOc1ccc(/C(O)=C2/C(=O)C(=O)N(c3cc(C)on3)C2c2ccc(C(=O)OC)cc2)cc1 (configuration not stated) do in these assays?
VDR inh: 9.1%

What do the screens show for `CCOC(=O)N1CCC(c2cc(=O)n3[nH]c(C)c(-c4ccc(F)cc4)c3n2)CC1`?
VDR inh: -11.7%

How did Cn1c(SCC(=O)NCc2ccco2)nnc1-c1ccc(S(=O)(=O)N2CCOCC2)cc1 do in these assays?
VDR inh: -14.6%

What do the screens show for `CN(C(=O)CSc1nc2ccccc2o1)C1CCCCC1`?
VDR inh: 11.9%

How did COc1cc(C2NC(=O)CCC2[N+](=O)[O-])cc(OC)c1OC (configuration not stated) do in these assays?
VDR inh: 18.5%

Results for CC(=O)C1C(c2ccc(Br)cc2)C2C(C)=NN=C2CC1(C)O (configuration not stated) ?
VDR inh: -25.0%

How did CCn1cc(S(=O)(=O)c2ccccc2)c(=O)c2cc(F)c(F)cc21 do in these assays?
VDR inh: 1.8%

How did CC(C)c1ccc(NC(=O)CSc2nc(=O)n(Cc3ccccn3)c3c2CCC3)cc1 do in these assays?
VDR inh: 3.5%

Results for CC(=O)Nc1ccc(S(=O)(=O)N2CCN(C)CC2)cc1 ?
VDR inh: -14.3%

Results for NC(=O)[C@@H]1CCCNc2c(F)cc([N+](=O)[O-])cc2C(=O)N[C@@H](CO)C(=O)NCC(=O)N1 ?
VDR inh: -1.6%

What do the screens show for `COc1cc(CCC(=O)Nc2ccc(Br)c(C(F)(F)F)c2)cc(OC)c1OC`?
VDR inh: -14.0%

What do the screens show for `Cc1ccc(CCNC(=O)C2CCC(=O)N2C2CCCC2)cc1` (configuration not stated)?
VDR inh: -2.8%

Results for COc1cc(NS(=O)(=O)c2ccc3c(c2)NC(=O)CO3)cc(OC)c1 ?
VDR inh: -5.9%

How did N#Cc1c(-c2ccccc2)cc(-c2cccs2)nc1SCC(=O)O do in these assays?
VDR inh: inconclusive

What do the screens show for `Cc1ccc(S(=O)(=O)N(Cc2nccn2C)C(C)C)cc1`?
VDR inh: inconclusive

Results for N=c1n(CC(=O)c2cccs2)c2ccccc2n1Cc1ccccc1 ?
VDR inh: 1.2%

Results for N#CCC(=O)Nc1nc(-c2ccc3c(c2)OCCO3)cs1 ?
VDR inh: 3.1%

What do the screens show for `Cc1cccc(Nc2ncnc3c2cnn3Cc2ccccc2)c1`?
VDR inh: -11.8%

What do the screens show for `O=C(COc1ccccc1)Nc1nc(-c2ccc(S(=O)(=O)N3CCOCC3)cc2)cs1`?
VDR inh: -25.1%

How did O=C(c1ccc(OC2CCN(Cc3ccccc3O)CC2)cc1)N1CCCCC1 do in these assays?
VDR inh: 6.6%

What do the screens show for `CC1(c2ccc(Cl)cc2)NC(=O)N(CC(=O)c2ccc3c(c2)OCO3)C1=O` (configuration not stated)?
VDR inh: -17.8%

How did c1ccc(Oc2ccc(-n3cnnn3)cc2)cc1 do in these assays?
VDR inh: 7.0%

How did Cc1cc(C)c2c(N=CN(C)C)c(C(=O)N3CCN(c4ncccn4)CC3)sc2n1 do in these assays?
VDR inh: -13.4%

Results for O=C(NNC(=S)NC(=O)c1ccccc1Cl)c1cccc([N+](=O)[O-])c1 ?
VDR inh: -25.2%

How did Cc1ccc(Sc2cnc3ccccc3n2)cc1 do in these assays?
VDR inh: -26.7%

What do the screens show for `O=C(NCc1cccc(Cl)c1)c1ccc(NC(=O)N2CCSc3ccccc32)cc1`?
VDR inh: 9.3%

What do the screens show for `Cc1cccc(NC(=O)c2ccc(S(=O)(=O)N3CCOCC3)cc2)c1C`?
VDR inh: -22.7%

Results for Cc1cc(C(=O)N/N=C/c2ccc([N+](=O)[O-])cc2)c2ccccc2n1 ?
VDR inh: -15.7%

How did COc1ccc(OCc2nnc(SCC(=O)Nc3ccccc3F)o2)cc1 do in these assays?
VDR inh: 11.8%

Results for CSCCC(NC(=O)C1CCC(C)CC1)C(=O)NCCN1CCC(C)CC1 (configuration not stated) ?
VDR inh: 17.2%

What do the screens show for `O=S(=O)(N1CCOCC1)N1CCCN(S(=O)(=O)N2CCOCC2)CC1`?
VDR inh: 4.4%

How did COC(=O)c1ccc(N2CCC(c3cc(-c4ccc(OC)cc4)n[nH]3)CC2)c([N+](=O)[O-])c1 do in these assays?
VDR inh: -14.3%

Results for CC(=O)c1ccccc1NC(=O)COC(=O)C1=NN(c2ccccc2)C(=O)CC1 ?
VDR inh: -0.7%

What do the screens show for `CCC1CCCCN1CCCNC(=O)Cn1c(=O)c2cccn2c2ccccc21` (configuration not stated)?
VDR inh: -10.4%

What do the screens show for `Cc1cc2c(c(=O)n1C)C(Cc1ccccc1)C(C#N)=C(N)O2` (configuration not stated)?
VDR inh: 4.3%

What do the screens show for `COc1ccc(OCCOC(=O)CNS(=O)(=O)c2ccc(SC)c([N+](=O)[O-])c2)cc1`?
VDR inh: -5.2%

Results for CCC(=O)N1CCN=C1SCc1cc(C)ccc1C ?
VDR inh: -16.2%

Results for COCCC(=O)N1CCc2c([nH]c3ccccc23)C1C(C)(C)C (configuration not stated) ?
VDR inh: -7.3%

Results for COc1cccc(N2CCN(C(=O)c3ccc(CS(=O)c4ccc(Cl)cc4)o3)CC2)c1 (configuration not stated) ?
VDR inh: -7.2%

Results for CC(C)c1nc(SCc2c(F)cccc2Cl)c2c(=O)n(C)c(=O)n(C)c2n1 ?
VDR inh: 7.9%

What do the screens show for `COc1ccc(CNC(=O)C(c2ccc(C)o2)N(C(=O)c2csnn2)c2ccc(C(C)C)cc2)cc1` (configuration not stated)?
VDR inh: 37.7%[activator]

How did O=C(O)c1cc(=O)c2cccc(O)c2[nH]1 do in these assays?
VDR inh: 5.8%&8.6%&-9.4%

How did c1ccc2c(c1)ccc1nnnn12 do in these assays?
VDR inh: 18.8%

How did NS(=O)(=O)c1ccc(NS(=O)(=O)c2ccc(C3CNC(=O)C3)cc2)cc1 (configuration not stated) do in these assays?
VDR inh: inconclusive

Results for COc1ccccc1NC(=O)CN1CCC(c2nc3ccccc3[nH]2)CC1 ?
VDR inh: 7.7%

How did Cc1ccccc1N(CC(=O)Nc1ccccc1C(=O)O)S(C)(=O)=O do in these assays?
VDR inh: 1.5%

What do the screens show for `COc1ccccc1NC(=S)N(Cc1ccc(C)cc1)Cc1cccnc1`?
VDR inh: 6.9%

Results for CN(C(=O)CSc1ncnc2sccc12)C1CCS(=O)(=O)C1 (configuration not stated) ?
VDR inh: 17.2%

Results for Cc1ccc(-c2nnc(N3CCCCC3)c3ccccc23)cc1S(=O)(=O)NCC1CCCO1 (configuration not stated) ?
VDR inh: -3.6%

What do the screens show for `O=[N+]([O-])c1ccc2nc(Cl)nc(-c3ccccc3)c2c1`?
VDR inh: -27.6%

Results for Cc1c(Cl)cnc(NC(=O)COC(=O)c2ccncc2)c1Cl ?
VDR inh: -20.7%

Results for O=C(CSc1nc(O)cc(=O)n1-c1ccccc1)N1CCCCC1 ?
VDR inh: 7.3%

How did Cc1cccc(NS(=O)(=O)c2ccc(OCC(=O)N3CCCC3)cc2)c1 do in these assays?
VDR inh: 0.1%

Results for O=c1[nH]c(=O)n(-c2ccccc2)c2c1C(C(F)(F)F)(C(F)(F)F)N=C(CCC1CCCCC1)N2 ?
VDR inh: -12.8%

Results for COc1ccccc1C(=O)Nc1cccc(N(C)S(C)(=O)=O)c1 ?
VDR inh: -1.4%

Continued; it opens with the 3 that closed the last part.
How did Cc1cccc(NS(=O)(=O)c2ccc(OCC(=O)N3CCCC3)cc2)c1 do in these assays?
VDR inh: 0.1%

Results for O=c1[nH]c(=O)n(-c2ccccc2)c2c1C(C(F)(F)F)(C(F)(F)F)N=C(CCC1CCCCC1)N2 ?
VDR inh: -12.8%

Results for COc1ccccc1C(=O)Nc1cccc(N(C)S(C)(=O)=O)c1 ?
VDR inh: -1.4%

Results for COc1ccc(-c2nc3ccccc3s2)cc1NC(=O)COc1ccccc1C ?
VDR inh: 1.1%

What do the screens show for `Cc1cc(N2CCN(C)CC2)nc2ccc(NC(=S)N3CCN(c4ccccn4)CC3)cc12`?
VDR inh: 10.0%

How did COc1ccc(-c2csc(Nc3ccccn3)n2)cc1OC do in these assays?
VDR inh: -0.1%

What do the screens show for `O=C1C=C(c2ccc(Oc3ccccc3)cc2)C[C@@H](c2ccc(Cl)cc2)C1`?
VDR inh: -5.4%

Results for C/C(=N\NC(=O)CNC(=O)C(c1ccccc1)c1ccccc1)c1ccc(C(C)(C)C)cc1 ?
VDR inh: -3.5%

How did CCOC(=O)c1ccc(N2C(=O)c3[nH]nc(-c4ccccc4)c3C2c2cccs2)cc1 (configuration not stated) do in these assays?
VDR inh: -7.2%

What do the screens show for `COc1ccc(C(=O)CSc2nnc(CNC(=O)c3ccco3)n2C)cc1OC`?
VDR inh: 0.3%

Results for COc1ccccc1N1CCN(CCCCNC(=O)c2ccc(-c3ccc(C(C)=O)cc3)cc2)CC1 ?
VDR inh: -0.1%&-7.1%

How did Cc1cc(C)c(NC(=O)COC(=O)c2cccc3c2C(=O)c2ccccc2C3=O)c(C)c1 do in these assays?
VDR inh: -0.2%

What do the screens show for `CC(C(=O)Nc1ccc(Cl)cc1)N(C)Cc1cccs1` (configuration not stated)?
VDR inh: -2.3%

How did C=CCNc1nc(-c2ccc3c(c2)OCCO3)cs1 do in these assays?
VDR inh: -4.8%

What do the screens show for `CCC(=O)N1CCc2cc(S(=O)(=O)NCc3ccc(C)cc3)ccc21`?
VDR inh: -8.5%

An excerpt from above in order of molecular weight, falling:
Results for COc1ccccc1N1CCN(CCCCNC(=O)c2ccc(-c3ccc(C(C)=O)cc3)cc2)CC1 ?
VDR inh: -0.1%&-7.1%

What do the screens show for `Cc1cc(N2CCN(C)CC2)nc2ccc(NC(=S)N3CCN(c4ccccn4)CC3)cc12`?
VDR inh: 10.0%

How did CCOC(=O)c1ccc(N2C(=O)c3[nH]nc(-c4ccccc4)c3C2c2cccs2)cc1 (configuration not stated) do in these assays?
VDR inh: -7.2%

What do the screens show for `CCC(=O)N1CCc2cc(S(=O)(=O)NCc3ccc(C)cc3)ccc21`?
VDR inh: -8.5%

What do the screens show for `CC(C(=O)Nc1ccc(Cl)cc1)N(C)Cc1cccs1` (configuration not stated)?
VDR inh: -2.3%

Later entries:
How did Cc1cc(NS(=O)(=O)c2ccc(NC(=O)c3cnc4sccn4c3=O)cc2)nc(C)n1 do in these assays?
VDR inh: -13.8%

What do the screens show for `Cn1nnc2cc(C(=O)Nc3ccccc3F)ccc21`?
VDR inh: -10.7%

What do the screens show for `CCCC(O)(CCC)C(=O)NN1CCCCC1`?
VDR inh: 79.4µM*

How did CC/C(=N/NC(=O)CNc1ccc(Cl)cc1C)c1ccccc1 do in these assays?
VDR inh: -1.9%

Results for CC1=C(C(=O)Nc2ccc(F)c(F)c2)C(c2cccs2)NC(=S)N1 (configuration not stated) ?
VDR inh: -12.3%

What do the screens show for `CCOc1ccccc1/C=N/OCC(=O)NCc1ccc(F)cc1`?
VDR inh: 2.6%

What do the screens show for `CC(C)CC(COCc1ccc(Cl)cc1)N1CCN(C(=O)c2ccc(C(F)(F)F)cc2)CCC1=O` (configuration not stated)?
VDR inh: inconclusive

What do the screens show for `COCCN1Cc2cccc(C(=O)Nc3ccc(S(=O)(=O)N4CCCCCC4)cc3)c2C1=O`?
VDR inh: -1.6%

How did COC(=O)c1ccc(C)c(NS(=O)(=O)c2ccc3c(c2)OCCO3)c1 do in these assays?
VDR inh: 23.1%

Results for C[C@@H](C(=O)NCc1c(F)cccc1Cl)N1C(=O)N2CCc3c([nH]c4ccccc34)[C@@]2(C)C1=O ?
VDR inh: -7.5%

Results for CC(=O)c1c(-c2ccccc2)c2cc(Cl)ccc2[nH]c1=O ?
VDR inh: 4.5%

An excerpt; count on the stated rates, not on these rows.
